# N370S GC mod: N370S glucocerebrosidase modulation, Gaucher chaperone candidate; P04062; N370S GC spleen homogenate, 4MU-glucoside fluorescence; Potency, µM (highest dose often 59.4 µM), without a hit: at the highest dose activity change, negative = inhibition, usual class: inhibitors; actives 0.092% (n = 330,000); AID 2101;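 also: 0% = full enzyme activity and -100% = no enzyme basal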
# GCN5L2 inh: blocks human GCN5L2 histone acetyltransferase; Q92830; GCN5L2 HAT assay, ThioGlo1 CoA-SH fluorescence; Potency, µM (titrated, usually from 58.9 µM), inactives show at the highest dose activity change, negative = inhibition, hits mostly inhibitors; actives 0.21% (n = 390,000); AID 504327
# Target sequence (Q92830 whole entry, looked up): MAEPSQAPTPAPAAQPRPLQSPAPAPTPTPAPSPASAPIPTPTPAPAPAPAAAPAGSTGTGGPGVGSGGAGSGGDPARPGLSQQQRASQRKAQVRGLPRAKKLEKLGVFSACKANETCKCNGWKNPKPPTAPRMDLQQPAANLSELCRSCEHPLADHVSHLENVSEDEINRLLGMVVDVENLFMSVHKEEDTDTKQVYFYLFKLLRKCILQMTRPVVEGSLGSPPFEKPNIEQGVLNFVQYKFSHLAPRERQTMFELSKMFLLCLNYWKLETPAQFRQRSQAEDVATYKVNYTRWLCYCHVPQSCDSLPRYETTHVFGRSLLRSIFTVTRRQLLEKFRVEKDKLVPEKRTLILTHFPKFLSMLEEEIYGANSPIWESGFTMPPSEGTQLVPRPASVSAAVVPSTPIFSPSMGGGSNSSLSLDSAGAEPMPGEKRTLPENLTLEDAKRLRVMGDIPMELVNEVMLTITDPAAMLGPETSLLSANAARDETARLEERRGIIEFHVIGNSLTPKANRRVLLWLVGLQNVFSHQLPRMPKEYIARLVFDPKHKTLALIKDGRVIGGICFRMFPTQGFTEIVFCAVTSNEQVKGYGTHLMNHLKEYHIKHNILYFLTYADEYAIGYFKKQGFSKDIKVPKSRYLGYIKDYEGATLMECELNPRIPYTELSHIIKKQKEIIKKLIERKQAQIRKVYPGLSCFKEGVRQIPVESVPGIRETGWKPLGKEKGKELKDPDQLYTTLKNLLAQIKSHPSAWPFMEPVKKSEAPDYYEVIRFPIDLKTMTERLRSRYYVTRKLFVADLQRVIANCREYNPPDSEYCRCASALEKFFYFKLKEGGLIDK
#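 GCN5L2 (20nM final) in 50mM HEPES, 0.1mM EDTA pH 7.5, 0.01% Tween-20 was preincubated 15 min at room temperature with compound, then given ThioGlo1 (50uM), H3(1-25) peptide (75uM) and acetyl-CoA (70uM); CoA-thiol fluorescence (Ex340/Em540) was read at 0 and 20 min.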
# Active calls of the source: *; ? = inconclusive; . = not tested or not shown. Calls follow the shape of the dose curve; as a rule, active = well fitted curve in the direction sought with a large enough effect; inconclusive = small, poorly fitted or top-dose-only effect, or another doubt; inactive = no such curve, though single readings can be large; an effect the other way counts as inactive or inconclusive. Unless noted, % is scaled to controls: 0 for no effect and ±100 for the full control effect; potency is read from the fitted curve at half-maximal effect. The list is partial, and most or all hits are left out here.
# Screens in order: N370S GC mod, GCN5L2 inh
> COc1cc(/C=N/N2CCOCC2)ccc1OC(=O)c1ccco1
→ -4%, -11%
> COc1ccc(C2=NCCc3cc(OC)c(OC)cc32)cc1OC
→ -1%, -5%
> CCc1cccc2c(C#N)cn(CCOc3ccccc3OC)c12
→ 25%, -1%
> O=C(COC(=O)c1c(Cl)ccc(Cl)c1Cl)NCC1CCCO1 (stereo not given)
→ ., -1%
> O=C(Nc1ccc2c(c1)OCCO2)C1CCC1
→ 3%, -9%
> C=CCn1c(C)cc(C(=O)CSc2nc(N)cc(N)n2)c1C
→ -4%, -4%
> O=S(=O)(NCC1(N2CCOCC2)CCCCC1)c1ccc(Cl)cc1C(F)(F)F
→ -15%, -19%
> O=C(CN1CCCCCC1)Nc1cccc(NC(=O)CN2CCCCCC2)c1
→ 2%, -3%
> COc1cccc(N(C(=O)c2cccs2)c2nc3ccccc3s2)c1
→ 7%, -7%
> O=C(Nc1ccc(Oc2ccc(C(F)(F)F)cn2)c(Cl)c1)C1CC1
→ -1%, -12%
> CCCOc1ccc2ccccc2c1/C=N/n1c(C)nnc1-n1nc(C)cc1C
→ 26%, -9%
> O=C1CCN(S(=O)(=O)c2ccccc2)CCN1CCOCc1cccc(F)c1
→ -11%, 14%
> O=C(CN1CCCC1)Nc1ccc(OC(F)(F)F)cc1
→ -4%, -9%
> COc1ccc(CCNC(=O)c2cc3c(cc2Cl)N2CCCCCC2=NS3(=O)=O)cc1
→ -14%, -8%
> CCn1cc(CN2CCN(C)C(CCO)C2)c2ccccc21 (stereo not given)
→ -5%, -4%
> CN(C)C(=O)Cn1c(SCC(=O)N2CCCc3ccccc32)nc2ccccc21
→ -7%, -7%
> Cc1ccc(C(=O)Nc2ccc(Br)cc2)cc1S(=O)(=O)N1CCOCC1
→ ., -3%
> COc1cc(Cl)c(NC(=O)c2cc(S(=O)(=O)N3CCCCC3)c[nH]2)c(OC)c1
→ ., -9%
> O=C(NC(=S)N1CCN(c2ccccc2)CC1)c1ccco1
→ ., 0%
> CC(=O)NC(Cc1ccccc1F)C(=O)NC1CCN(S(=O)(=O)c2ccccc2)CC1 (stereo not given)
→ -5%, -5%
> COc1ccc(-c2c(C)c3ccc(O)cc3oc2=O)cc1
→ ?, -17%
> CCc1cc2c(NCCC(=O)O)nc(C)nc2s1
→ -2%, -1%
> CCN(CC)C(=O)Oc1ccnc2cc(Cl)ccc12
→ 1%, 3%
> O=C(COc1ccc(F)cc1Cl)NC1CCCCCC1
→ ., -6%
> CSc1ccccc1C(=O)NCCc1ccc(S(=O)(=O)N2CCCCC2)cc1
→ -7%, -17%
> CC(C)Cc1nnc(NC(=O)c2cccc(S(=O)(=O)N3CCN(C)CC3)c2)s1
→ -17%, -7%
> O=c1c2ccccc2c(-c2ccccc2)nn1Cc1ccccc1
→ 26%, -4%
> CCOC(=O)c1cnc2c(-c3ccccc3)c(C)nn2c1N
→ 2%, 0%
> CCNc1nc(CN2CCCCC2)nc2scc(-c3ccccc3)c12
→ 0%, 3%
> Cc1nn(CC(=O)NCC(C)c2ccccc2)c(=O)c2cccn12 (stereo not given)
→ -4%, -1%

# Later entries:
# Screens in order: N370S GC mod, GCN5L2 inh
> Clc1ccccc1OCc1nnc2n1CCCCC2
→ 7%, 1%
> Cc1ccc(NC(=O)COC(=O)CNC(=O)c2ccco2)cc1
→ -1%, -9%
> c1ccc2cc3[nH]c(CN4CCOCC4)nc3cc2c1
→ 14%, 0%
> CS(=O)(=O)Nc1nnc(Cc2ccccc2)s1
→ 4%, -1%
> O=C(N/C(C(=O)N1CCOCC1)=C(\Sc1ncccn1)c1ccccc1)c1ccccc1
→ -2%, 3%
> OC(CNCC1COc2ccccc2O1)COc1ccccc1F (stereo not given)
→ -3%, -1%
> CC(=O)Nc1nc(=S)n(-c2ccccc2)[nH]1
→ -8%, -16%
> O=C(O)C1C2CCC(C2)C1C(=O)NCc1ccco1 (stereo not given)
→ ?, -10%
> O=C(NCCc1ccccc1)C(=O)NCCC1CCCCN1S(=O)(=O)c1cccs1 (stereo not given)
→ 4%, 1%
> CCOc1ccc(-n2c(SCC(=O)Nc3nccs3)nc3c(c2=O)SCC3)cc1
→ -13%, -8%
> COc1ccc(-c2cn3ccsc3n2)cc1
→ 3%, -2%
> CC(=O)c1c2c3c(c(Br)ccc3n(C)c1=O)C(=O)c1ccccc1-2
→ 1%, -8%
> C=CCSC1=C(C#N)C2(CCCCC2)C(C#N)C(=O)N1 (stereo not given)
→ 8%, -3%
> O=C1NC(=O)/C(=C\c2ccccc2Oc2ccc(F)c(F)c2)S1
→ 12%, -13%
> CCCN1C2CCCC1CC(NC(=O)c1ccc(F)cc1)C2 (stereo not given)
→ -6%, -4%
> COCCNC(=O)CN(Cc1ccc(F)cc1)C(=O)CCC(=O)Nc1nccs1
→ 0%, -6%
> COc1ccc(Cl)cc1C(=O)Nc1nnn(C)n1
→ -5%, 1%
> COc1ccc(NC(=O)COc2ccc3c(c2)CCC3)cc1S(N)(=O)=O
→ ., -2%
> O=C(Nc1ccc(O)c(-c2nc3ccccc3s2)c1)c1cc(=O)c2ccccc2o1
→ 4%, 0%
> O=C(O)c1ccccc1C(=O)NCCc1c(C(=O)O)[nH]c2ccc(Cl)cc12
→ -2%, 2%
> CCCS(=O)(=O)N1CCN(CCN2C(=O)c3cccc4cccc(c34)C2=O)CC1
→ -11%, 1%
> CCCCn1cnc2c(=S)nc(N)[nH]c21
→ 2%, -3%
> c1cnc2ccc3ncccc3c2c1
→ -3%, -8%
> CCc1ccccc1NC(=O)Cn1c(C(=O)OC)cc2oc(C)cc21
→ ., 2%
> COc1ccc(C(=O)N2CCCC2)cc1
→ 11%, -3%
> CCCS(=O)(=O)c1c(S(=O)(=O)CCC)c2c(N)cccn2c1C(=O)c1ccc(Br)cc1
→ 8%, -14%
> COCCn1c(SCC(=O)NNC(=O)c2ccc(OC)c(OC)c2)nc2ccccc2c1=O
→ -5%, -5%
> COc1ccc(OCC(=O)Nc2ccc(S(=O)(=O)N3CCN(C)CC3)cc2)cc1
→ -25%, 0%
> Cn1c(=O)n(Cc2ccccc2Br)c2ccccc21
→ 6%, -6%
> Oc1ccc(CCC2CCCCN2Cc2nc(C3CC3)no2)cc1 (stereo not given)
→ -14%, -19%

# Arranged by the number under N370S GC mod (lowest first): six of the compounds above.
SMILES | N370S GC mod | GCN5L2 inh
c1cnc2ccc3ncccc3c2c1 | -3% | -8%
CCCCn1cnc2c(=S)nc(N)[nH]c21 | 2% | -3%
CS(=O)(=O)Nc1nnc(Cc2ccccc2)s1 | 4% | -1%
Cn1c(=O)n(Cc2ccccc2Br)c2ccccc21 | 6% | -6%
Clc1ccccc1OCc1nnc2n1CCCCC2 | 7% | 1%
O=C1NC(=O)/C(=C\c2ccccc2Oc2ccc(F)c(F)c2)S1 | 12% | -13%

# Single values from above:
# c1ccc2cc3[nH]c(CN4CCOCC4)nc3cc2c1 | N370S GC mod = 14%
# O=C(NCCc1ccccc1)C(=O)NCCC1CCCCN1S(=O)(=O)c1cccs1 (stereo not given) | GCN5L2 inh = 1%

# Continued.
# Screens in order: N370S GC mod, GCN5L2 inh
> CCc1cccc(C)c1NC(=O)CCS(=O)(=O)c1cc(Br)cc2c1N(C(=O)C1CC1)CC2
→ ., -2%
> Cc1nn(-c2ccccc2)c(N2CCCCC2)c1/C=N/O
→ -5%, -15%
> COc1ccc(NC(=O)COCc2cc(-c3cccs3)on2)cc1
→ ., -7%
> COc1ccc(Br)cc1CNC(C)c1ccccc1 (stereo not given)
→ -29%, -2%
> O=C(c1ccc(CN2CCOCC2)cc1)N1CCC(Cc2ccccc2)CC1
→ -2%, 3%
> O=[N+]([O-])c1cccc(Nc2nc(Cl)nc(Cl)n2)c1
→ -8%, -1%
> CC(C)c1c(C(=O)N/N=C/c2ccc(OCc3ccccc3)cc2)nnn1-c1nonc1N
→ -14%, -5%
> COc1ccc(NC(=O)c2ccco2)cc1NC(=O)c1cccnc1
→ 0%, 4%
> CC(C)CNC(=O)c1cccc(NC(=O)C2CCCO2)c1 (stereo not given)
→ -1%, 4%
> Cc1oc(-c2ccc(-c3ccccc3)cc2)nc1CN1CCN(CC(=O)N(C)C)CC1
→ -13%, 4%
> Cc1ccccc1NC(=O)c1nc[nH]c1C(=O)NCc1ccccc1
→ 16%, -1%
> CCN1CCN(c2cc(=O)n(Cc3ccc(F)cc3)c(=O)[nH]2)CC1
→ 7%, -1%
> COc1cc2ccccc2cc1C(=O)NC(=S)Nc1nnn(C)n1
→ 0%, 0%
> COc1cccc(C(=O)OCC(=O)Nc2cc(C)c(C)cc2[N+](=O)[O-])c1
→ 17%, 1%
> O=C(Cn1cnc2ccccc21)Nc1ccc(C(=O)O)cc1
→ 18%, 2%
> COc1ccc(S(=O)(=O)N2CCc3ccccc32)cc1[N+](=O)[O-]
→ 0%, 12%
> CC1CN(CC(=O)NCc2ccc(F)cc2)CC(C)O1 (stereo not given)
→ -2%, -2%
> CN(Cc1ccccc1)c1cc(Cl)nc(N)n1
→ 6%, -8%
> O=C(CN(c1ccc(F)cc1)S(=O)(=O)c1ccc2c(c1)OCCO2)N1CCOCC1
→ 0%, -2%
> CC1CCN(C(=O)COC(=O)C23CC4CC(CC(O)(C4)C2)C3)CC1
→ ., -3%
> Cc1ccc(S(=O)(=O)NNC(=O)Nc2ccc(Cl)cc2)cc1
→ -5%, 2%
> CCNC(=O)CNC(=O)c1nn(Cc2ccccc2)c(=O)c2ccccc12
→ -11%, 1%
> C/C(CCc1oc2c(Br)cc(Br)cc2c1-c1ccc(C)o1)=N\O
→ 7%, 0%
> O=C(O)C1CCCCC1C(=O)NCCCn1ccnc1 (stereo not given)
→ 10%, -2%
> O=C(CNC(=O)[C@@H]1Cc2ccccc2CN1)NC1CCCC1
→ -4%, -15%
> CCOC(=O)c1nc(C)n(-c2ccc(Cl)cc2)n1
→ 0%, -3%
> CCOC(=O)c1cc(NC(=O)N(CC)CC)c(C)nc1C
→ -3%, 3%
> O=c1nc2ccc(Cl)cn2c2ccc(S(=O)(=O)N3CCOCC3)cc12
→ ?, -11%
> CCOC(=O)N1CCN(C(=O)/C(=C/c2ccc(OC)c(OC)c2)NC(=O)c2ccccc2)CC1
→ -28%, -12%
> Cc1cccn2c(=O)c(/C=C(\C#N)C(=O)NCc3ccccc3)c(N3CCC(C(N)=O)CC3)nc12
→ 18%, -3%

# Remaining list, next part.
# Screens in order: N370S GC mod, GCN5L2 inh
> CSCC[C@H](NC(=O)C1CCN(S(=O)(=O)c2ccc(C)cc2)CC1)C(=O)NC1CCS(=O)(=O)C1 (stereo not given in full)
→ 8%, -1%
> Cc1c(Br)cc(C(=O)O)c(C)c1C
→ 5%, 3%
> CCSc1nnc(NC(=O)C(Cc2ccccc2)n2cccc2)s1 (stereo not given)
→ 2%, 3%
> Cc1ccc(NC(=O)COC(=O)C2CC(=O)N(Cc3ccccc3)C2)cc1S(=O)(=O)N(C)C (stereo not given)
→ 0%, -11%
> CCN(CC)C(=O)Cn1cc(S(=O)(=O)CC(=O)NCCc2ccccc2)c2ccccc21
→ -3%, ?
> Cc1cc(C)c(C(=O)OCC(=O)NC(=O)c2ccccc2)c(C)c1
→ 0%, 1%
> CCN(CC)S(=O)(=O)c1ccc(Oc2cccc(C(C)=O)c2)nc1
→ 6%, 3%
> CCOc1cc2[nH]c(=O)n(Cc3ccc(C(=O)NCCOC)cc3)c(=O)c2cc1OCC
→ 4%, 2%
> O=C(Nc1nc2ccc([N+](=O)[O-])cc2s1)c1c(F)cccc1F
→ 2%, 3%
> Cc1cc(C)n(CC(C)NCc2cn[nH]c2-c2cccc3ccccc23)n1 (stereo not given)
→ 1%, -11%
> Cc1cc(=O)n2[nH]c(-c3sccc3-n3c(C)ccc3C)cc2n1
→ 8%, -30%
> N=C1C(c2nc(-c3ccc(Cl)cc3)cs2)=C(O)CN1CCCN1CCOCC1
→ -24%, -7%
> COc1ccc(Nc2cc(=O)n(C3CCCCC3)c(=O)[nH]2)c(OC)c1
→ 1%, 2%
> CSc1c(SCc2ccccc2)cnn(-c2ccccc2)c1=O
→ 7%, -14%
> Cc1cc(NC(=O)CN2C(=O)NC(C)(CC(C)C)C2=O)no1 (stereo not given)
→ ., 1%
> Cc1ccc(-c2csc3nnc(SCC(=O)NCc4ccco4)n23)cc1
→ -2%, -8%
> CCOc1cc(N2CCOCC2)c(OCC)cc1NC(=O)c1c(-c2ccccc2)noc1C
→ ., -6%
> Brc1cnc2nc[nH]c2c1
→ -27%, -24%
> Cc1cc2cc(CCNC(=O)c3ccc(Br)o3)c(=O)[nH]c2cc1C
→ 8%, -19%
> c1ccc(-n2nnnc2-n2ccnc2)cc1
→ -2%, 2%
> COc1ccc(S(=O)(=O)NCC(=O)N(CC(=O)NCC2CCCO2)c2c(C)cccc2C)cc1 (stereo not given)
→ 2%, -1%
> CCC(C)NC(=O)CN(C)S(=O)(=O)c1ccc2c(c1)c(=O)n(C)c(=O)n2C (stereo not given)
→ 6%, -13%
> CCCc1oc2c(c(=O)c1CC)C(=O)CC(C)(C)C2
→ 2%, 0%
> CCOC(=O)N1CCN(C(=S)Nc2ccc(C)cc2)CC1
→ 2%, -6%
> C=CCOc1c(Br)cc(/C=C(\C#N)C(N)=O)cc1OC
→ -2%, -5%
> CO/N=C/c1c(C(=O)OC)nn(-c2ccccc2)c1Cl
→ -3%, 2%
> CN(/N=C/c1ccc2c(c1)OCO2)c1ccccc1
→ 11%, -2%
> COc1ccccc1CN(C)C(=O)c1cccc(S(=O)(=O)N2CCc3ccccc3C2)c1
→ ., -13%
